Assay outcomes (PubChem BioAssay)
miR-21 reporter – raises the signal of a miR-21 reporter; HeLa miR-21 FLuc reporter, luciferase, 48 h; Potency, µM (highest dose often 38.3 µM), inactives show at the highest dose reporter change, positive = more light; 340,000 tested, under 10 active; active = well fitted rising curve with a large enough effect; inconclusive = small, poorly fitted or top-dose-only effect; inactive = no such curve, though single readings can be large or run the other way;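 note: % of control where 0% means no effect; miR-21 action dims this reporter so a rising signal means less miR-21 action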
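HeLa miR-21-FLuc reporter line, endogenous miR-21; 2000 cells/well in DMEM/10% FBS; compound titration up to ~40uM final, 48 h, 37 degree Celsius; luciferase detection reagent, 15 min lysis, CCD luminescence.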
Rango dissoc inh – inhibitors of RanGTP-induced Rango-importin beta complex dissociation; O95149+P62826; Biochemical FRET Rango-importin beta, RanGTP-induced dissociation; Potency, µM (highest dose often 46.1 µM), without a hit: at the top dose activity change, negative = inhibition; hit rate 0.071% among 340,000; AID 540253; active means falling FRET ratio curve, often poorly fitted, with flat reads before Ran was added; inconclusive means other falling curves, or compound fluorescence or quenching; inactive means flat or rising ratio curve;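 note: potency is the fitted concentration of half-maximal effect; % of control where 0% means no effect; nearly all actives have a fitted effect of over 45% in size; -100% = wells without RanGTP and RCC1; the record marks most hits as doubtful in a second field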
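Rango/importin beta premix (0.1/0.25 uM final), PBS + 1 mM DTT + 0.02% Tween-20 + 0.1% BSA; cpd 5 min RT; FRET pre-read; + RanGTP-RCC1 (0.6 uM Ran, 2 mM GTP, 0.2 uM RCC1); 45 min RT; FRET post-read, ex 430, em 486/530 nm.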
Rango-impB inh – prevents formation of the Rango-importin beta complex; Rango CFP/YFP FRET sensor + importin beta, 45 min; Potency, µM (top dose mostly 92.2 µM), for the others: top-dose inhibition of complex formation; hit rate 0.031% among 340,000; AID 540263; active = rising FRET ratio curve, often small or poorly fitted; inconclusive = mostly compound fluorescence or quenching in the first reads; inactive = flat curves in all reads;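 note: potency is the fitted concentration of half-maximal effect; 0% = DMSO wells and 100% = buffer wells lacking importin beta; nearly all actives have a fitted effect of over 15% in size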
Target sequence (Q14974 whole entry, looked up): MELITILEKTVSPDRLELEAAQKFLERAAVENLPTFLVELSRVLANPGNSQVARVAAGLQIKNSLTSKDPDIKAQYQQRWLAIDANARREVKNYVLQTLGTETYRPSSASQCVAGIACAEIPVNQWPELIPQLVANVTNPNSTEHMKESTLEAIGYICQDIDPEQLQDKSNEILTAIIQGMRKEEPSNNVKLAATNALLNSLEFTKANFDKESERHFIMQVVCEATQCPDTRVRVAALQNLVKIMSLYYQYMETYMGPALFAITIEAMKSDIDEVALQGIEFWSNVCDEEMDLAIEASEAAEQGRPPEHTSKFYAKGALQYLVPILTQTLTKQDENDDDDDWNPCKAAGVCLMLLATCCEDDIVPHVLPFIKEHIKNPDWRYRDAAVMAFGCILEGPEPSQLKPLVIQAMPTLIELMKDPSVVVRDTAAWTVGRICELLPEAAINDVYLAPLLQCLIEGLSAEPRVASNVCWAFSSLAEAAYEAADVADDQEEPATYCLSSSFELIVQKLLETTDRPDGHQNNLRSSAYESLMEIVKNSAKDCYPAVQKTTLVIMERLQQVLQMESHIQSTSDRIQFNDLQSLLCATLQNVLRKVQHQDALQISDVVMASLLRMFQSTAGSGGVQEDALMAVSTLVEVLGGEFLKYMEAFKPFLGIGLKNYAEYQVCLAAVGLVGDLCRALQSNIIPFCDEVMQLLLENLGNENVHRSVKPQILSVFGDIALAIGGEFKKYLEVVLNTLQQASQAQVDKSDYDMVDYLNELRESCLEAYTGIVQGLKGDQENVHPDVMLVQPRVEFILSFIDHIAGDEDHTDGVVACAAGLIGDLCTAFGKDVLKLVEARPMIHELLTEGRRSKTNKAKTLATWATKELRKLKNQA
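FRET biosensor (snurportin 1 IBB flanked by EYFP and cerulean), 50 nM, with compound 5 min, then 0.125 microM importin beta in PBS, 1 mM DTT, 0.02% Tween-20, 0.1% BSA. CFP/YFP ratio read after 45 min at room temperature; pre-read flags interference.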
GLA inh pH 4.5 – alpha-galactosidase A (human) inhibition, pH 4.5; P06280; purified enzyme, 4-MU-alpha-Gal fluorescence, pH 4.5; activity change, negative = inhibition, % at 105 µM; 230,000 tested, under 10 active; AID 1467; inconclusive = small, poorly fitted or top-dose-only inhibition, or a rising curve; inactive = flat fitted curve, though single readings scatter; no compound was filed as active;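 note: 0% = full activity with enzyme and -100% = basal without enzyme; dose as in the result columns while the protocol names 77 µM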
Starred values were filed as active, the others as inactive; u = inconclusive; x = no result given. Only part of the results is shown; the hit share may differ from the screen's.

1	COCCNCCCCOc1c(Cl)cc(C)cc1Br
2	CCn1ccnc1CN(C)Cc1nc(-c2ccc(C(=O)OC)cc2)no1
3	O=C1C2N=NN(CC(=O)N3N=C(c4ccccc4)CC3c3ccc([N+](=O)[O-])cc3)C2C(=O)N1c1ccccc1 (centres undefined)
4	Clc1ccc(-c2nnc(SCc3cn4ccsc4n3)n2CC2CCCO2)cc1 (centres undefined)
5	Cc1ccc(S(=O)(=O)NCCC(=O)N2CC(C)OC(C)C2)cc1C (centres undefined)
6	CCc1cccc(NC(=O)CCS(=O)(=O)c2ccc(Br)cc2)c1
7	COc1ccc(NC(=O)Cc2cccs2)cc1S(=O)(=O)N1CCCCC1
8	Cc1cccc(S(=O)(=O)N2CCCc3ccccc32)c1
9	O=C(NN1CCCCC1)c1cccc2ccccc12
10	Cc1ccc(C(=O)N/C(=C\c2ccc(-c3ccc(Cl)cc3)o2)C(=O)NCCCN(C)C)cc1

| assay / compound | 1 | 2 | 3 | 4 | 5 | 6 | 7 | 8 | 9 | 10 |
| --- | --- | --- | --- | --- | --- | --- | --- | --- | --- | --- |
| miR-21 reporter | 0% | -5% | 0% | -9% | x | 0% | x | -1% | 4% | u |
| Rango dissoc inh | 1% | -4% | x | -9% | -3% | 16% | -6% | -6% | -19% | -2% |
| Rango-impB inh | 2.6% | 0.5% | x | 0.6% | 1.2% | 3.5% | 0.4% | 0.0% | 2.5% | 0.6% |
| GLA inh pH 4.5 | -2 | -2 | -12 | 9 | x | x | x | x | -2 | -7 |

11	Cc1noc(C)c1COc1ccc(C(=O)NCCc2ccc(F)cc2)cc1
12	CC1=C(C(=O)OC(C)C)C(c2ccccc2)NC(=S)N1C (centres undefined)
13	Cc1cc(S(=O)(=O)Nc2ccc(C(=O)N3CCN(C(=O)c4ccco4)CC3)cc2)ccc1F
14	CC(/C=C/c1ccco1)=N\NC(=O)COc1ccc(C)c(C)c1
15	COc1cc(-c2ccc(NC(=O)NC3CC3)c(OC)c2)ccc1NC(=O)NC1CC1
16	COc1ccccc1Oc1nc(-c2ccccc2)cc(C)c1S(C)(=O)=O
17	CCCn1c(=N)n(CC(=O)C(C)(C)C)c2ccccc21
18	CCC(=O)NC(NC(=S)Nc1ccc(S(N)(=O)=O)cc1)C(Cl)(Cl)Cl (centres undefined)
19	O=C1CCCC2=C1C(c1ccc(Cl)cc1)n1c(s/c(=C\c3ccc4ccncc4c3)c1=O)=N2 (centres undefined)
20	FC(F)(F)c1ccc(Cl)c(NC(=S)N/N=C/c2ccccc2C(F)(F)F)c1

| assay / compound | 11 | 12 | 13 | 14 | 15 | 16 | 17 | 18 | 19 | 20 |
| --- | --- | --- | --- | --- | --- | --- | --- | --- | --- | --- |
| miR-21 reporter | x | 1% | 5% | -2% | 11% | -6% | -1% | -1% | -2% | -7% |
| Rango dissoc inh | -5% | -2% | -4% | 9% | x | 13% | 16% | 3% | 5% | 2% |
| Rango-impB inh | 1.2% | -2.1% | 1.0% | -0.5% | x | 3.8% | 4.2% | 9.3% | -3.5% | 0.6% |
| GLA inh pH 4.5 | x | -1 | -1 | -3 | -7 | -8 | 3 | -3 | -1 | -1 |

21	O=C(O)C1Cc2ccccc2CN1C(=O)CCl (centres undefined)
22	C=CCn1c(P(=O)(O)c2ccccc2)nc2ccccc21
23	COc1ccc([C@H]2CC(=O)C=C(/C=C/Cc3ccccc3)C2)cc1
24	Cc1nc(CNC(=O)C2CCC(=O)N(Cc3cccc(F)c3)C2)sc1C (centres undefined)
25	NC(=O)C1CCCN(C(=O)NC2CCCCC2)C1 (centres undefined)
26	Cc1cc2cc(CN(Cc3cccs3)C(c3nnnn3C(C)(C)C)C(C)C)c3nnnn3c2cc1C (centres undefined)
27	O=S(=O)(Nc1ccc2c(c1)OCCO2)c1cccc2nsnc12
28	CCN(CC(=O)Nc1c(F)cccc1F)C(=O)c1ccc(C#N)cc1
29	O=[N+]([O-])c1cc(-c2csc(NCCc3nc4cc(Cl)c(N5CCCCC5)cc4n3CCCO)n2)ccc1Cl
30	CC[C@H](C)[C@H](NC(N)=O)C(=O)OCC(=O)NCc1ccc(Cl)cc1

| assay / compound | 21 | 22 | 23 | 24 | 25 | 26 | 27 | 28 | 29 | 30 |
| --- | --- | --- | --- | --- | --- | --- | --- | --- | --- | --- |
| miR-21 reporter | 0% | -4% | x | 1% | -4% | -4% | -27% | -3% | x | -1% |
| Rango dissoc inh | 19% | 14% | -14% | -1% | 7% | 14% | 1% | 5% | 7% | -3% |
| Rango-impB inh | u | 0.3% | -5.4% | u | 3.9% | -3.1% | 4.0% | 4.1% | 4.7% | -0.9% |
| GLA inh pH 4.5 | -4 | 1 | x | x | -7 | -2 | 13 | x | x | 7 |

31	CCOc1ccccc1NCc1cc(=O)oc2cc(C)c(O)cc12
32	O=C(Nc1ccc(Cl)cc1)Nc1cc(S(=O)(=O)N2CCOCC2)ccc1N1CCCC1
33	Cc1cc(=O)oc2c3c(cc(OCC(=O)N[C@@H](C)C(=O)O)c12)OC(C)(C)CC3
34	CCOC(=O)CC1C(=O)NCCN1C(=O)COc1ccc(Br)cc1C (centres undefined)
35	OC[C@H]1OC(O)C[C@@H](O)[C@@H]1O (some centres undefined)
36	COc1ccc(/C=C/C(=O)c2c(C)cc(C)[nH]c2=O)c2ccccc12
37	O=c1[nH]c(Cc2ccccc2)nc2scc(-c3ccccc3)c12
38	Cc1cc(C)n(-c2ccc(C(=O)OCC(=O)Nc3ccc([N+](=O)[O-])cc3)cc2)n1
39	COc1ccc(/C=C/C2=NNC(=O)CC2)cc1
40	CC(C)C(C(=O)Nc1nccs1)N1C(=O)c2ccccc2C1=O (centres undefined)

| assay / compound | 31 | 32 | 33 | 34 | 35 | 36 | 37 | 38 | 39 | 40 |
| --- | --- | --- | --- | --- | --- | --- | --- | --- | --- | --- |
| miR-21 reporter | -8% | 1% | 0% | -10% | x | u | -20% | -1% | -56% | 0% |
| Rango dissoc inh | -8% | -12% | -13% | 2% | -12% | u | 7% | 0% | 0% | 5% |
| Rango-impB inh | -0.8% | -0.1% | 3.8% | -0.8% | -0.3% | u | 7.5% | -3.1% | -3.1% | 0.1% |
| GLA inh pH 4.5 | x | -12 | x | -7 | x | x | -2 | 8 | 6 | 8 |

41	Cc1sc2nc(CN(Cc3cccs3)C(=O)NC3CCCCC3)[nH]c(=O)c2c1C
42	O=C(O)c1ccc(N2CC3CC(C2)c2cccc(=O)n2C3)c(NC(=S)Nc2ccc(Br)cc2)c1 (centres undefined)
43	CC(=O)c1ccccc1Oc1nc(CN2CCOCC2)nc2scc(-c3cccs3)c12
44	CN(CC1COc2ccccc2O1)C(=O)c1ccc(N(C)C)cc1 (centres undefined)
45	O=C(c1cc2ccccc2o1)N1CCN=C1SCc1cccc(F)c1
46	Fc1cccc2sc(N3CCCCC3)nc12
47	Cc1noc(NS(=O)(=O)c2ccc(NC(=O)c3ccc(Br)o3)cc2)c1C
48	CCCCCCCCSc1nnc(CSc2nc3nc(C)cc(C)n3n2)o1
49	Cc1ccc(NC(=O)COC(=O)Cc2ccc(Br)cc2)cc1S(=O)(=O)N1CCOCC1
50	NC(=O)CSc1nc2c(sc3ccccc32)c(=O)n1CCCN1CCOCC1

| assay / compound | 41 | 42 | 43 | 44 | 45 | 46 | 47 | 48 | 49 | 50 |
| --- | --- | --- | --- | --- | --- | --- | --- | --- | --- | --- |
| miR-21 reporter | 20% | -1% | -12% | -28% | -12% | -53% | -9% | 1% | x | -5% |
| Rango dissoc inh | -7% | 1% | u | 9% | 0% | 17% | u | 3% | -10% | 5% |
| Rango-impB inh | -3.7% | 0.0% | u | 1.4% | 1.6% | 0.6% | 2.5% | 0.0% | -0.1% | -2.6% |
| GLA inh pH 4.5 | -14 | -7 | -7 | 1 | -7 | -3 | -4 | -3 | x | 1 |

Structures shown so far with a tert-butyl group:
17	CCCn1c(=N)n(CC(=O)C(C)(C)C)c2ccccc21
26	Cc1cc2cc(CN(Cc3cccs3)C(c3nnnn3C(C)(C)C)C(C)C)c3nnnn3c2cc1C (centres undefined)

| assay / compound | 17 | 26 |
| --- | --- | --- |
| miR-21 reporter | -1% | -4% |
| Rango dissoc inh | 16% | 14% |
| Rango-impB inh | 4.2% | -3.1% |
| GLA inh pH 4.5 | 3 | -2 |

Retrieved by structure from the entries so far:
49	Cc1ccc(NC(=O)COC(=O)Cc2ccc(Br)cc2)cc1S(=O)(=O)N1CCOCC1
43	CC(=O)c1ccccc1Oc1nc(CN2CCOCC2)nc2scc(-c3cccs3)c12

| assay / compound | 49 | 43 |
| --- | --- | --- |
| miR-21 reporter | x | -12% |
| Rango dissoc inh | -10% | u |
| Rango-impB inh | -0.1% | u |
| GLA inh pH 4.5 | x | -7 |

Going on with the list.
51	Cc1csc(Sc2ccc(C(=O)OCC(=O)Nc3ccc(OC(F)(F)F)cc3)cc2[N+](=O)[O-])n1
52	COc1ccccc1-c1sc2ccccc2c1C#Cc1ccc(N(C)C)cc1
53	Cc1ccc(NC(=O)C2CCCN2C(=O)NC2CCCCC2)cc1C (centres undefined)
54	Cc1ccc(CSc2nc3[nH]ncc3c(=O)[nH]2)cc1
55	Nc1c(Cl)cc(-c2csc(N3CCCC3c3nc4cc(Cl)c(Cl)cc4n3CCOCCO)n2)cc1Cl (centres undefined)
56	COc1ccc(C2C3=C(CCCC3=O)Nc3nc(C(F)(F)F)nn32)cc1OC (centres undefined)
57	CCOC(=O)CNC(c1ccccc1)c1cc(Br)ccc1NC(C)=O (centres undefined)
58	CC(C)Cc1nc(N2CCOCC2)c(C#N)c2c1CCC2
59	Cc1c(NC(=O)CN2CCN(c3cccc(Cl)c3)CC2)c(=O)n(-c2ccccc2)n1C
60	CCOC(=O)N1CCN(C(=O)CSC2=NS(=O)(=O)c3ccccc3N2)CC1

| assay / compound | 51 | 52 | 53 | 54 | 55 | 56 | 57 | 58 | 59 | 60 |
| --- | --- | --- | --- | --- | --- | --- | --- | --- | --- | --- |
| miR-21 reporter | 0% | x | 0% | -56% | -10% | -7% | 6% | -5% | 1% | x |
| Rango dissoc inh | 3% | u | -12% | 0% | 15% | 14% | 7% | 5% | 2% | 1% |
| Rango-impB inh | 0.3% | u | 0.7% | -4.5% | u | -6.0% | -0.9% | 0.4% | 1.7% | 2.3% |
| GLA inh pH 4.5 | -1 | x | -1 | 0 | x | 2 | 12 | 3 | -3 | x |

61	COC(=O)c1c(C)[nH]c(C)c1-c1ccc(C)cc1
62	O=C(NC1CCCC1)c1cc(-c2cccs2)on1
63	CCCCNC(=O)CC(C(=O)N1CCc2ccccc21)n1ccnc1 (centres undefined)
64	CC(Sc1n[nH]c(=O)n1Cc1ccccc1)C(=O)NC1CCCCC1C (centres undefined)
65	Cc1onc(-c2ccccc2Cl)c1C(=O)N1CCOC12CCCCC2
66	CCN1C(=O)N[C@H](c2ccccc2)C(C(C)=O)=C1C
67	Clc1ccc(N2CCN(c3nc4nonc4nc3N3CCSCC3)CC2)nc1
68	CCOc1ccccc1OCCCC(=O)NNC(=O)c1cc(C)oc1C
69	O=C(CSc1ncn(-c2ccccc2)n1)N1CCN(c2ccccc2)CC1
70	O=C(N/N=C/C=C/c1cccc([N+](=O)[O-])c1)c1ccncc1
71	Cc1ccnn1CCC(=O)N1CCCC(CCC(=O)NCc2ccccc2F)C1 (centres undefined)
72	CC(C)CC(/C(O)=C(\C#N)c1nc2ccccc2[nH]1)N1C(=O)c2ccccc2C1=O (centres undefined)

| assay / compound | 61 | 62 | 63 | 64 | 65 | 66 | 67 | 68 | 69 | 70 | 71 | 72 |
| --- | --- | --- | --- | --- | --- | --- | --- | --- | --- | --- | --- | --- |
| miR-21 reporter | -1% | -72% | 1% | x | -1% | x | -2% | x | -4% | 0% | -2% | 3% |
| Rango dissoc inh | -9% | 7% | 22% | -4% | -2% | -3% | 1% | 6% | -20% | 11% | -5% | 8% |
| Rango-impB inh | -4.0% | 5.5% | 1.9% | 0.0% | 0.2% | 7.4% | -1.9% | 4.0% | -0.2% | -2.5% | 0.0% | 0.8% |
| GLA inh pH 4.5 | -5 | -1 | 6 | x | 1 | 7 | 3 | x | -1 | -5 | 0 | -5 |
